# SKKanGAS inh: S. pyogenes SKKanGAS growth inhibitors in kanamycin, primary screen, streptokinase expression inhibitor project, SKKanGAS strain, BacTiter-Glo luminescence; 6 h; inhibition, % at 7.5 µM; 300,000 tested, 1.3% active;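 active means mean replicate score, as percent of positive control median, at least 50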;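 further: strain carries kanamycin resistance gene driven by streptokinase promoter and grows in 40 µg/ml kanamycin; loss of luminescence reflects streptokinase promoter inhibition or plain growth inhibition; 0% = median of DMSO wells and 100% = positive control at its reference dose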
# MrgX1 ag: agonists of human MrgX1 receptor, primary screen, HEK293 cells, Fluo-4 calcium flux | Fluo-4 calcium fluorescence, agonist mode; active compounds read high | 310,000 tested, 0.44% active | B-score at 10 µM;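 active means calcium response B-score plate-corrected fluorescence ratio at least 3 library SD, with starting fluorescence B-score inside 5 SD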
# Target sequence (Q96LB2 whole entry, looked up): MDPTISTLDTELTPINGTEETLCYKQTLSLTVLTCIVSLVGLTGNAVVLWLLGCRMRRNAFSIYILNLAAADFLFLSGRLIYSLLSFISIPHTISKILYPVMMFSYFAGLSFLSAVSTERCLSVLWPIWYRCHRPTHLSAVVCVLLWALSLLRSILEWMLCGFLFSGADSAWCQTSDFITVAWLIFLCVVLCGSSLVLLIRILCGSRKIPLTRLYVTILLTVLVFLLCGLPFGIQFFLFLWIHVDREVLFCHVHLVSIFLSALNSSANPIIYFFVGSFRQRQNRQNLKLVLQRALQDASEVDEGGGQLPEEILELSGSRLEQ
#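 System – MrgX1-expressing HEK293 cells · Incubation – cells plated overnight, dye loaded 0.5 h 37 °C, 0.5 h room temperature · Technique – kinetic Fluo-4 NW fluorescence of intracellular calcium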
# TRPC6 inh: mouse TRPC6 channel inhibitors, primary screen, cell-based, HEK293, membrane potential dye; 310,000 tested, 1.1% active; B-score at 10 µM; AID 2553, 2010; ACh-evoked depolarization; active compounds read low;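 active means B-score under library mean minus 3 SD, initial fluorescence not abnormally high, positive integrated signal ratio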;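 further: B-score derived from integrated fluorescence ratio over the kinetic read; more negative B-score means stronger inhibition of depolarization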
# Platelet DG rel: inhibitors of platelet dense granule secretion, primary screen, cell-based, MLPCN, human platelets; human platelet-rich plasma, SFLLRN dense granule ATP release, luminescence; inhibition, %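 (compounds screened at 7.5 µM in platelet-rich plasma)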; 300,000 tested, 0.22% active;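 active means mean replicate score, as percent of positive control, at or above 50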
# MrgX1 antag: antagonists of human MrgX1 receptor, primary screen, HEK293 cells, Fluo-4 calcium flux. Mas-related G-protein coupled receptor member X1 (Homo sapiens), Q96LB2. BAM8-22 antagonism; active compounds read low. B-score at 10 µM. 310,000 tested, 1.3% active. AID 588676, 2011;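 active means calcium-response B-score plate-corrected more than 3 library SD below zero, starting fluorescence within 5 deviations, no agonist response on first addition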;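 further: peak minus trough fluorescence over baseline after final BAM8-22 challenge near maximal dose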
# TRPC6 act: mouse TRPC6 channel activators, primary screen, cell-based, HEK293, membrane potential dye; HEK293-TRPC6 membrane potential dye fluorescence; active compounds read high; B-score at 10 µM; 310,000 tested, 0.13% active; AID 2550, 2010;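 active means B-score of the integrated fluorescence ratio above library mean plus 3 SD, and starting fluorescence ratio within library mean plus 5 SD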;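 further: higher score means more depolarization so channel activation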
# TRPC4 inh: inhibitors of mouse TRPC4 channel, primary screen, Fluo4 calcium, HEK293 TRPC4beta/mu-opioid cells; Short transient receptor potential channel 4 (Mus musculus), Q9QUQ5; DAMGO-evoked Fluo4 calcium flux; active compounds read low; B-score at 10 µM; 300,000 tested, 0.39% active; AID 2247, 2010;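 active means B-score over 3 SD under the library average, no early fluorescence shift, positive overall ratio signal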
#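 Material: HEK293 cells with stable TRPC4beta plus mu-opioid receptor expression / Probe or stimulus: DAMGO in two steps, submaximal then maximal / Compound: single concentration per test compound / Technique: kinetic Fluo4 fluorescence imaging of calcium influx / Read-out: per-well B score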
# MrgX1 PAM: positive allosteric modulators of MrgX1, primary screen, HEK293 cells, Fluo-4 calcium flux. B-score at 10 µM. FDSS; active compounds read high. 310,000 tested, 0.63% active;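 active means plate-corrected calcium response at least 3 library SD above typical, normal starting fluorescence, not activating the receptor alone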;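 further: compound read alongside a low EC10 to EC30 dose of BAM8-22 agonist; peak minus trough fluorescence over baseline measured at the second addition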
# RGS4 inh: RGS4 inhibitors, primary screen, cell-based, HEK293 M3R inducible RGS4, calcium flux. Fluo-4 calcium flux; active compounds read high; triggered by carbachol at its EC20. B-score at 10 µM. 310,000 tested, 0.45% active;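 active means B-score, a plate-corrected calcium signal, over three deviations above library mean, with baseline fluorescence within five deviations of library mean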;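 further: RGS4 expression induced by doxycycline in cells with stable M3 receptor; B-score is computed from the integrated fluorescence ratio over baseline after carbachol; higher B-score means a larger calcium signal and so more RGS4 inhibition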
# Target sequence (P49798 whole entry, looked up): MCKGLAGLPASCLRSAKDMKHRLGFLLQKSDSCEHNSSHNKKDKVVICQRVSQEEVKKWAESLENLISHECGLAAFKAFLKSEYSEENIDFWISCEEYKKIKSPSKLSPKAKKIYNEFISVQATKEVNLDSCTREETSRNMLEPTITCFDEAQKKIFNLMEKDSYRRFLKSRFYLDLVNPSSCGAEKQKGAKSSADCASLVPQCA
# RGS4 act: RGS4 potentiators or activators, primary screen, cell-based, HEK293 M3R inducible RGS4, calcium flux | carbachol calcium flux Fluo4; active compounds read low | B-score at 10 µM | 310,000 tested, 0.92% active | AID 463111, 2010;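 active means B-score of the integrated calcium signal more than 4 SD below the library mean, with starting fluorescence not abnormally high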;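 further: negative B-score means reduced calcium response which marks RGS4 activation or potentiation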
#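 System: HEK293 FlpIn-TREx cells, stable M3R, doxycycline-inducible RGS4. Timing: overnight RGS4 induction, 30 min dye load 37 °C, 20 min compound RT. Also added: carbachol, ECmax concentration. Measured by: Fluo4 fluorescence kinetic imaging of calcium. Evaluation: integrated calcium ratio converted to B score.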
# * = called active by the depositor; i = inactive; nt = not tested or not shown; & = joins results of further samples. The list is partial, so the mix of outcomes need not match the whole.
molecule,SKKanGAS inh,MrgX1 ag,TRPC6 inh,Platelet DG rel,MrgX1 antag,TRPC6 act,TRPC4 inh,MrgX1 PAM,RGS4 inh,RGS4 act
CCC(=O)NC1(C(F)(F)F)C(=O)Nc2c1c(=O)[nH]c(=O)n2Cc1ccco1 (stereo not drawn),-3.2,i,i,-50.7,i,i,i,i,i,i
Clc1ccccc1-c1nc(-c2ccncc2)no1,-8.1&6.8,i,i,8.0&-5.6,i,i,i,i,i,i
Cc1cc(C)n(S(=O)(=O)/C=C/c2ccccc2)n1,3.8,i,i,1.1,i,i,i,i,i,i
COc1ccc(C(C)=O)cc1CSCCC(=O)O,10.0,i,i,-4.5,i,i,i,i,i,i
CCC(CC)n1[nH]c(=O)cc1N,-12.2,i,i,3.8,i,i,i,i,i,i
CC1(C)CC(Nc2ccc(Nc3ccccc3)cc2)CC(C)(C)N1,-0.4,i,i,4.9,i,i,i,i,i,i
O=C(O)C(Cc1c[nH]c2ccccc12)N1C(=O)c2ccccc2C1=O (stereo not drawn),-3.7,i,i,-1.4,i,i,i,i,i,i
O=C(Nc1ccc2c(c1)OCCO2)c1ccc(Br)o1,1.2,i,i,nt,i,i,i,i,i,i
O=C(O)CCc1nc(-c2ccccc2)c(-c2ccccc2)o1,-4.2,i,i,-4.6,i,i,i,i,i,i
CCOC(=O)C1Cc2c([nH]c3ccccc23)C(C)N1 (stereo not drawn),-3.5,i,i,4.9,i,i,i,i,i,i
Cc1cccc(C)c1OCC(O)CNS(=O)(=O)c1ccccc1C(=O)N1CCOCC1 (stereo not drawn),6.5,nt,i,4.4,nt,i,i,nt,i,i
CCOC(=O)[C@H](CCc1ccccc1)N[C@@H](C)C(=O)N1C(C(=O)O)C[C@@H]2CCC[C@@H]21 (stereo partly drawn),nt,i,nt,nt,i,nt,nt,i,nt,nt
CCCCNC(=O)NS(=O)(=O)c1ccc(C)cc1,-1.3,i,i,0.2,i,i,i,i,i,i
CC1(C)NC(=O)N(CC(O)COc2ccccc2C(=O)Nc2ccccc2)C1=O (stereo not drawn),-0.9,i,i,-1.2,i,i,i,i,i,i
c1ccc(Cc2nnc3n2CCCCC3)cc1,-5.2,i,i,9.5,i,i,i,i,i,i
Cn1c(SCC(=O)N2CCOCC2)nnc1-c1cccc(NC(=O)c2ccccc2F)c1,3.7,i,i,3.6,i,i,i,i,i,i
Cc1ncc([N+](=O)[O-])n1CCO,1.7,i,i,-6.2,i,i,i,i,i,i
CCOc1ccc(C2/C(=C(/O)c3ccc(F)cc3)C(=O)C(=O)N2CCCN(C)C)cc1 (stereo not drawn),1.5,i,i,13.3,i,i,i,i,i,i
Cc1cn([C@H]2C[C@H](N=[N+]=[N-])[C@@H](CO)O2)c(=O)[nH]c1=O,-0.2,i,i,-0.1,i,i,i,i,i,i
O=C(c1ccc2c(c1)OCCO2)N1CCCCC1,2.3,i,i,8.2,i,i,i,i,i,i
c1ccc(C2=Nn3c(nnc3-c3ccccn3)SC2)cc1,5.6,i,i,-4.4,i,i,i,i,i,i
CC/C(C)=C1\SC(N2CCN(C(C)=O)CC2)=NC1=O,-2.4,i,i,19.4,i,i,i,i,i,i
NCC(=O)Nc1ccc(Cl)cc1C(=O)c1ccc[nH]1,-5.5,nt,i,-2.3,nt,i,i,nt,i,i
OC(c1nc2ccccc2[nH]1)C(O)C(O)C(O)c1nc2ccccc2[nH]1 (stereo not drawn),3.1,i,i,-3.4,i,i,i,i,i,i
O=CN1CCN(C(=O)CN2C(=O)c3ccccc3C2=O)CC1,5.1,i,i,1.1,i,i,i,i,i,i
COc1cccc(-c2nc(N3CCC(C)CC3)c3ccccc3n2)c1O,23.8,i,i,-3.4,i,i,i,i,i,-7.12*
Cn1c[n+](C)cc1/C=N/O,0.8,i,i,2.9,i,i,i,i,i,i
CCC(C(=O)OCCN(CC)CC)c1ccccc1 (stereo not drawn),-2.5,i,i,-2.3,i,i,i,i,i,i
C=CCN1CCc2c(cc(O)c(O)c2Cl)C(c2ccccc2)C1 (stereo not drawn),-4.9,i,i,-2.8,i,i,i,i,i,i
COc1cc(CNC(=O)CCCC/C=C\C(C)C)ccc1O,-5.2,i,i,-0.8,i,i,i,i,i,i
Nc1nnnn1/N=C/c1ccco1,9.6,i,i,-0.3,i,i,i,i,i,i
Cc1ccc2c(c1)[C@@H]1CN(C)CC[C@@H]1N2S(=O)(=O)c1ccc(F)cc1,-13.4,i,i,-4.3,i,i,i,i,i,i
Nc1nc2n(n1)C(c1cccs1)CC(c1ccc(F)cc1)N2 (stereo not drawn),6.9,i,i,-1.2,i,i,i,i,i,i
COc1cccc(N2CCN(C(=O)c3ccc(=O)oc3)CC2C)c1 (stereo not drawn),-5.3,i,i,-1.0,i,i,i,i,i,i
CCOc1ccc(S(=O)(=O)N(C)C)cc1-c1nc2c(C(C)(C)C)nn(C)c2c(=O)[nH]1,12.5,i,i,-0.7,i,i,i,i,i,i
CCc1cc2c(nc1CC)CCN(CC/C(C)=N/O[C@@H](C)c1cc(-c3c(C)cc(C)cc3C)no1)C2,10.7,i,i,-1.3,i,i,i,i,i,i
CCc1ccccc1NC(=O)CSC1=C(C#N)C(c2ccc(O)c(OC)c2)C2=C(CCCC2=O)N1 (stereo not drawn),2.2,i,i,-2.1,i,i,i,i,i,i
Cn1c(Cn2cnc3ccccc32)nc2ccccc21,-0.2,i,i,-5.3,i,i,i,i,i,i
Cn1c([N+](=O)[O-])cnc1COC(N)=O,-1.8,i,i,6.7,i,i,i,i,i,i
CC1=NN(c2ccccc2)C(=O)C1N=Nc1ccc(S(N)(=O)=O)cc1 (stereo not drawn),12.4,i,i,-12.0,i,i,i,i,i,i
O=C(O)c1cc(-c2ccccc2)nc2ccccc12,-1.0,i,i,-5.4,i,i,i,i,i,i
CC1=CC=CN2CC(O)CN=C12 (stereo not drawn),7.0,i,i,-0.5,i,i,i,i,i,i
CCN(CC)CCN1C(=O)C(=O)/C(=C(/O)c2c(C)[nH]c(C(=O)OC)c2C)C1c1cccc(OC)c1 (stereo not drawn),-2.8,i,i,0.6,i,i,i,i,i,i
Cc1ccc(S(=O)(=O)NCC(=O)OCN2C(=O)c3ccccc3C2=O)cc1,9.9,i,i,17.9,i,i,i,i,i,i
CCCCC(=O)Nc1c(O)c2ccccc2[nH]c1=O,1.3,i,i,-3.7,i,i,i,i,i,i
Cc1ccc(-n2ncc3c(N4CCCC4)ncnc32)c(C)c1,1.4,i,i,6.4,i,i,i,i,i,i
CC(C)c1nc2n[nH]c(N)c2c2c1CCCC2,5.4,i,i,-0.4,i,i,i,i,i,i
CN1CCN(CCCCOc2ccc(F)cc2)CC1,-6.3,i,i,5.0,i,i,i,i,i,i
COC(=O)c1ccn(C(=O)c2ccc(Cl)cc2)n1,-9.4,i,i,-11.7,i,i,i,i,i,i
CC(=O)O[C@H]1C(=O)[C@@]2(C)[C@H]([C@H](OC(=O)c3ccccc3)[C@]3(O)C[C@H](OC(=O)[C@H](O)C(NC(=O)c4ccccc4)c4ccccc4)C(C)=C1C3(C)C)[C@]1(OC(C)=O)CO[C@@H]1C[C@@H]2O (stereo partly drawn),-0.1,i,i,3.6,i,i,i,i,i,i

# (list continues)
molecule,SKKanGAS inh,MrgX1 ag,TRPC6 inh,Platelet DG rel,MrgX1 antag,TRPC6 act,TRPC4 inh,MrgX1 PAM,RGS4 inh,RGS4 act
Cc1nc(SCC(N)=O)[nH]c(=O)c1Cc1ccc(OC(C)C)cc1,3.4,i,i,-2.0,i,i,i,i,i,i
c1ccc(SCc2nc3ccccc3[nH]2)nc1,0.1,i,i,15.9,i,i,i,i,i,i
CCc1nc(N2CCOCC2)c(C#N)c2c1CCCC2,-5.4,i,i,-1.7,i,i,i,i,i,i
N#Cc1c2c(c(-c3ccco3)[nH]c1=O)CCCC2,-5.9,i,i,-7.9,i,i,i,i,i,i
CCOCCn1c(SC)nc2c1c(=O)[nH]c(=O)n2C,2.6,i,i,-4.2,i,i,i,i,i,i
COC(=O)c1ccccc1N1C(=O)[C@@H]2C(c3ccc(Br)cc3)=NO[C@@H]2C1=O,-4.9,i,i,0.2,i,i,i,i,i,i
c1ccc(CSc2nnc(SCc3ccccn3)s2)nc1,-1.9,i,i,-5.2,i,i,i,i,i,i
c1ccc(OCc2nn3c(-c4ccccn4)nnc3s2)cc1,0.5,i,i,-4.2,i,i,i,i,i,i
COC(=O)CCc1c(C)[nH]c(C(=O)OCc2ccccc2)c1C,-8.3,i,i,-5.6,i,i,i,i,i,i
CCN=C1SC(C(=O)Nc2ccc(Cl)c(Cl)c2)CC(=O)N1CC (stereo not drawn),4.0,i,i,-0.2,i,i,i,i,i,i
N#Cc1c(NCCCO)nc(-c2ccccc2)c2c1CCCC2,3.4,i,i,7.2,i,i,i,i,i,i
NC(=O)C1CCN(C2OC(=O)c3ccccc32)CC1 (stereo not drawn),-3.6,i,i,-0.4,i,i,i,i,i,i
COc1ccccc1OCC(=O)Nc1ccc(S(=O)(=O)Nc2cc(C)nc(C)n2)cc1,-4.2,i,i,-11.3,i,i,i,i,i,i
COC(=O)c1cc(OC)c(OC)cc1N,-0.8,i,i,1.2,i,i,i,i,i,i
CN1C(=O)CC[C@H]1c1cccnc1,1.1,i,i,0.5,i,i,i,i,i,i
CC1(C)Cc2c(C#N)c(OCC(=O)c3ccccc3)nc(-c3ccoc3)c2CO1,0.5,i,i,0.3,i,i,i,i,i,i
O=c1c(-c2ccc(O)cc2)coc2cc(O)ccc12,-5.4,i,i,10.2,-7.84*,i,i,i,i,i
CC(NC(=O)c1ccc(Cl)c(Cl)c1)c1ccc(-c2ccccc2)cc1 (stereo not drawn),0.7,i,i,6.0,i,i,i,i,i,i

# Screening results (PubChem BioAssay)
